# Source: PubChem
# YopH PTP inh = blocks Yersinia enterocolitica YopH tyrosine phosphatase; fluorescence Ex485/Em525; inhibition, %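 (about 10 µM by stock and volumes)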; actives 0.16% (n = 140,000); AID 898;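 active = inhibition of 50% or more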;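 note: controls were vehicle for no effect and minimum signal wells for full effect; inactives centre near -20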
# RecA splice inh = blocks M. tuberculosis RecA intein splicing; P9WHJ3; actives 0.75% (n = 290,000); cell-free RecA intein splicing, fluorescence; inhibition, %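 (about 9 µM by stock and volumes)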; in the data active = inhibition above about 30%;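 note: 0% = vehicle wells and 100% = reference inhibitor control wells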
# Target sequence (P9WHJ3 whole entry, looked up, canonical isoform): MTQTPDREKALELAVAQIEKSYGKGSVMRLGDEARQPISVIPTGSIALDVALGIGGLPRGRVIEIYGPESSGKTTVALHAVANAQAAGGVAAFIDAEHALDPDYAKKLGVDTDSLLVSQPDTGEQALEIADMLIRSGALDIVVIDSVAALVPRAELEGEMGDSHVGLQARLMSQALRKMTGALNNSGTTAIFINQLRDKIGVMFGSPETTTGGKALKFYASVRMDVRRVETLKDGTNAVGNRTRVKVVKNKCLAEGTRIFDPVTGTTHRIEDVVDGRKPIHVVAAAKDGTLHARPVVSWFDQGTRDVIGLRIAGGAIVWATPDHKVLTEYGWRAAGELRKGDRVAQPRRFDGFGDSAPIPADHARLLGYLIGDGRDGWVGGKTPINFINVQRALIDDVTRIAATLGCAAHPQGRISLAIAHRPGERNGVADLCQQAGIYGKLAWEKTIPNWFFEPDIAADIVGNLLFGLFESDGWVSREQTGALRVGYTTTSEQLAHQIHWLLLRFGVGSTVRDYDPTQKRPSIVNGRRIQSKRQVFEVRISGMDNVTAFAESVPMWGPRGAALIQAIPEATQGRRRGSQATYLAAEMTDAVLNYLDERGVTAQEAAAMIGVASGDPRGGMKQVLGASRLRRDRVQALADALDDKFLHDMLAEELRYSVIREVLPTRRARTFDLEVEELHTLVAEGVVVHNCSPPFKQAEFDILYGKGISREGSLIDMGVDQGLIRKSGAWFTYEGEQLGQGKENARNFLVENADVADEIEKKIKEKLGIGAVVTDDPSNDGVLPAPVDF
# Mtb H37Rv = M. tuberculosis H37Rv growth inhibitors, H37Rv strain (AID 1626); M. tuberculosis H37Rv growth inhibition; higher % means a stronger effect; one-dose inhibition, % at 10 µM; IC50 in µM for titrated hits; actives 0.95% (n = 220,000);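 active = confirmed in a dose series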;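 note: bacteria incubated seven days before Alamar blue readout; 0% = bacteria only wells and 100% = bacteria with antibiotic wells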
# Arbovirus anti = arbovirus infection inhibition | inhibition, % at 10 µM | arbovirus infection cell-based antiviral screen | actives 0.37% (n = 200,000) | AID 1251;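 active = inhibition from about 30%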;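 note: bluetongue infection of BSR cells; cell survival read as ATP light after 72 h; 0% = infected wells without compound and 100% = uninfected wells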
# Mtb bLac sens = beta-lactam sensitization of Mtb H37Rv; inhibition, % at 25 µM; AID 434955; M. tuberculosis H37Rv growth with meropenem, percent inhibition; hits of this screen are not shown here; actives 0.27% (n = 330,000);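 active = about 74% or more and at least 40 points above the plate without the antibiotic, then above 30% in a dose series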;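 note: growth measured after seven days incubation then overnight dye step; 0% = bacteria only wells and 100% = bacteria with antibiotic; twin plates without the antibiotic show which effects depend on it; some results filed as inactive read as strong as hits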
# Arbovirus anti repeat = also measured in Arbovirus anti; calls as there; inhibition, %; measured here: 10K subset replicate screen; many hits read low in the repeat;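 first of two repeat runs on a subset; 0% = infected and 100% = uninfected wells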
# Starred values were filed as active, the others as inactive; . = not tested or not shown.
SMILES,YopH PTP inh,RecA splice inh,Mtb H37Rv,Arbovirus anti,Mtb bLac sens,others
Cc1ccc(C#N)c(SCC(=O)Nc2nccs2)n1,.,-8.1,-3%,-11,1,
O=C(NCc1ccccn1)c1cc(S(=O)(=O)N2CCN(c3ccccc3)CC2)ccc1Cl,-3,1.7,-7%,12,11,
CCCC(=O)Nc1ccc(Cl)c(NC(=S)NC(=O)c2ccco2)c1,-10,-0.5,-2%,-4,0,
Cc1scc(C(=O)N/N=C/c2ccsc2)c1C,-23,-1.1,8%,0,13,
COc1ccc(/C=C/C2=NN(Cc3ccccc3)C(=O)CC2)cc1,.,0.8,0%,-3,12,
CCCOc1ccc(S(=O)(=O)N2C(=O)CC(=O)N(Cc3ccc(OCC)cc3)C2=O)cc1,.,3.3,-3%,.,-2,
CSc1ncccc1C(=O)OCC(=O)N(CC(C)C)c1c(N)n(Cc2ccccc2)c(=O)[nH]c1=O,.,2.1,.,.,-5,
COc1cccc(-c2nnn(C/C(N)=N/O)n2)c1,-31,-3.6,.,-4,-4,
Cc1ccc(N2CCN(/N=C/c3sccc3C)CC2)cc1,-24,1.7,-3%,0,6,
COc1ccccc1NC(=O)NNC(=O)CN1C(=O)COc2ccccc21,.,2.4,.,.,-2,
CCN(CCCNS(=O)(=O)c1cc(-c2cc(C)no2)ccc1C)Cc1ccccc1,.,-2.9,.,.,2,
Clc1ccc(Cn2ccc3ccccc32)cn1,.,2.8,.,.,4,
CCOc1ccccc1C(=O)NC(C)c1ccc(-n2ccnc2)cc1 (stereo not drawn),.,0.8,.,.,-18,
COc1ccccc1C(c1nnnn1C(C)(C)C)N1CCN(C(=O)c2ccco2)CC1 (stereo not drawn),-24,-12,7%,-2,2,
CN1C(C)(C)CC(NC(=O)c2ccco2)CC1(C)C,.,-4.8,.,.,-4,
O=C(CN1CCN(c2ccccc2)CC1)N1CCN(c2ccccc2)CC1,-22,-0.5,1%,1,-4,
CCC(CC)C(=O)Nc1cccc(C(=O)NCc2ccco2)c1,-117,1.3,0%,5,4,
CCCC(=O)N1CCC(Cc2ccccc2)CC1,.,-1.5,.,.,-8,
O=C(/C=C/c1ccco1)NC(=S)Nc1ccc(Cl)cn1,-27,0.8,-5%,4,-8,
CC(=O)N1CCN(CC(=O)Nc2c(Cl)cc(Cl)cc2Cl)CC1,-26,-3.3,-10%,9,-2,
CC1C(=O)N2CCCc3cc(NC(=O)C4CCCCC4)cc1c32 (stereo not drawn),.,-1.7,.,.,-3,
CC(C)CC(NC(=O)C(CC(C)C)NC(=O)OC(C)(C)C)C(N)=O (stereo not drawn),-15,-1.1,-6%,5,-2,
CCc1cccc(CC)c1NC(=O)CO/N=C(\C)c1cccs1,-8,3.5,13%,5,-2,
COc1cccc(OC)c1C(=O)OCC(=O)Nc1ccc(OC(F)(F)F)cc1,-11,2.1,5%,5,64,
COc1ccc(Br)cc1C(=O)NCc1cccnc1,-16,-2.0,2%,-5,0,

# The list goes on, overlapping the part above by 6 compounds.
SMILES,YopH PTP inh,RecA splice inh,Mtb H37Rv,Arbovirus anti,Mtb bLac sens,others
CC(=O)N1CCN(CC(=O)Nc2c(Cl)cc(Cl)cc2Cl)CC1,-26,-3.3,-10%,9,-2,
CC1C(=O)N2CCCc3cc(NC(=O)C4CCCCC4)cc1c32 (stereo not drawn),.,-1.7,.,.,-3,
CC(C)CC(NC(=O)C(CC(C)C)NC(=O)OC(C)(C)C)C(N)=O (stereo not drawn),-15,-1.1,-6%,5,-2,
CCc1cccc(CC)c1NC(=O)CO/N=C(\C)c1cccs1,-8,3.5,13%,5,-2,
COc1cccc(OC)c1C(=O)OCC(=O)Nc1ccc(OC(F)(F)F)cc1,-11,2.1,5%,5,64,
COc1ccc(Br)cc1C(=O)NCc1cccnc1,-16,-2.0,2%,-5,0,
CSc1ccccc1NC(=O)c1onc(C)c1Cl,-15,-0.8,-2%,-4,1,Arbovirus anti repeat=-1
COc1cccc(NC(=O)CN2CCSc3ccccc32)c1,.,-4.3,8%,2,10,
CCC(C)c1ccccc1N1CC(C(=O)N2CCN(S(=O)(=O)c3ccccc3Br)CC2)CC1=O (stereo not drawn),.,0.6,.,.,-14,
Cc1ccc(CNC(=S)NC2CCC(C(C)(C)C)CC2)cc1 (stereo not drawn),.,23,.,.,9,
O=C(NC(=S)Nc1ccccc1Cl)c1csnn1,-3,-2.4,-9%,5,2,
O=C(COc1ccc([N+](=O)[O-])cc1)Nc1ccc2c(c1)nc1n2CCOC1,.,0.2,.,.,1,
Cc1ccc(CCC(=O)Nc2ccc(Br)cc2)o1,.,1.2,.,.,12,
CCC(CC)C(=O)NCc1cccnc1,.,-0.9,3%,0,64,
O=C(CCc1ccc(S(=O)(=O)N2CCOCC2)cc1)NCCc1ccccn1,-10,1.5,-15%,4,8,
CCOc1ccc(-n2c(SCC(=O)Nc3ccccc3CC)nc3n[nH]c(C)c3c2=N)cc1,.,0.1,1%,6,8,
CN(C)CCCN(C(=O)c1ccc(S(=O)(=O)N2CCCC2)cc1)c1nc2ccc(Br)cc2s1,.,3.0,.,.,-26,
COc1ccc(NC(=O)CCC(=O)NCCO)cc1,.,1.1,-6%,-2,-10,
CCC(=O)Nc1cccc(C2=NOC3(C2)C[C@H](C(N)=O)N(C(=O)c2ccc(Cl)cc2)C3)c1 (stereo partly drawn),.,-1.0,-8%,.,-9,
O=C(Nc1cc2ccccc2oc1=O)c1ccccc1,.,-0.2,5%,-9,-4,
CCOC(=O)C(C)Oc1cccc2c(=O)n(CC(=O)Nc3ccc(OCC)cc3)ccc12 (stereo not drawn),-39,1.5,5%,-3,9,
CCOc1ccc(NC(=O)c2ccc(CSc3nnc(C)s3)cc2)cc1,.,-2.2,83%,-7,54,
O=C(CN1CCC(C(=O)c2cccc(Cl)c2)CC1)Nc1ccc(C(=O)O)cc1,.,7.7,-10%,-8,-6,
CCC1CCCCN1CCn1c(=S)[nH]c2cc(OC)c(OC)cc2c1=O (stereo not drawn),-32,2.1,-2%,-6,-3,
O=C(CSc1nc(-c2ccccc2)cc(C(F)(F)F)n1)N1CCOCC1,-17,2.9,-1%,-4,-13,
Cc1ccc2c(c1)N(CC(=O)NC1CCC(C)CC1)C(=O)CO2 (stereo not drawn),-66,-0.5,-5%,5,1,
CC(C)C[C@@H](CSc1ccccc1)N1CCN(CCc2ccccc2)CCC1=O,.,-2.2,.,.,7,
COc1ccc(NC(=O)CSCC(=O)N(C)CC(=O)Nc2cccc3ccccc23)cc1,.,0.0,.,.,1,
O=C(CCC1CCCC1)N=C1SC2CS(=O)(=O)CC2N1c1ccccc1F (stereo not drawn),.,0.2,.,.,-4,
O=C(Nc1nc(=S)ss1)c1ccc(Cl)cc1Cl,-35,-1.2,-8%,-5,8,
C/C(=N\NS(=O)(=O)c1ccc([N+](=O)[O-])cc1)c1c[nH]c2ccccc12,.,-0.7,.,.,1,
# Following part:
SMILES,YopH PTP inh,RecA splice inh,Mtb H37Rv,Arbovirus anti,Mtb bLac sens,others
O=C(Nc1ccc(Cl)cn1)C1CCN(c2ncnc3c2nc2n3CCCCC2)CC1,.,-4.1,.,.,85,
CC(=O)Nc1c(O)nc(SCC(=O)Nc2nnc(CC(C)C)s2)[nH]c1=O,-9,.,-1%,-4,-12,
CN(C)C(=S)NC(=NCc1ccc([N+](=O)[O-])cc1)c1ccccc1,.,2.5,.,.,3,
Cc1ccccc1-c1nc(CS(=O)CC(=O)NCCCN(C)c2ccccc2)c(C)o1 (stereo not drawn),-50,2.4,-2%,-9,8,
Cc1ccc(NC(=O)c2cccc(OCc3c(C)noc3C)c2)cc1,-21,2.1,1%,-2,-3,
Cc1ccc(/C=C/C(=O)N(Cc2cccs2)C2CCS(=O)(=O)C2)cc1 (stereo not drawn),.,0.2,1%,.,1,
CCOC(=O)C1CCN(C(=O)C(=O)Nc2ccc3nc4n(c(=O)c3c2)CCCCC4)CC1,.,-1.6,.,.,-5,
Cc1ccc(CC(=O)NCCS(=O)c2ccc(C)cc2)cc1 (stereo not drawn),.,-1.7,4%,-2,0,
Cc1ncc(N=Nc2ccccc2)c(-c2ccccc2)n1,-39,5.1,8%,-6,3,
COc1ccc(NC(=O)c2ccc(NC(=O)c3ccncc3)cc2)cc1,.,-1.2,.,.,0,
O=[N+]([O-])c1cc(/C=N/N2CCOCC2)cs1,.,-5.1,.,.,0,
Cc1ccc(C2CC(c3cccs3)=NN2C(=O)CSC2=NCCS2)cc1 (stereo not drawn),.,57*,.,.,74,
COc1ccc(CC(=O)Nc2nn(C)c3nc4c(C)cccc4cc23)cc1,.,-2.4,3%,.,-4,
COc1ccc(C(CNC(=O)c2cccc(S(=O)(=O)Nc3ccccc3OC)c2)N2CCCC2)cc1 (stereo not drawn),.,-0.6,.,.,-6,
Cc1c(C(=O)N2CCN(c3ccccc3F)CC2)sc2nc(-c3ccccc3)cn12,-46,-0.1,3%,4,47,
Cc1cc(=O)oc(C)c1C(=O)Nc1ccc(Cl)cn1,-33,-0.4,-2%,9,-8,
CCOc1ccccc1N1C(=O)c2cccnc2C1=O,-1,2.4,-5%,8,-6,Arbovirus anti repeat=-3
c1ccc(Cc2nc3ccccc3[nH]2)cc1,.,0.2,.,.,-3,
O=c1[nH]c(=S)n(Cc2ccc(F)cc2)c(O)c1C=NCC1CCCO1 (stereo not drawn),15,-3.5,5%,13,8,
Cc1c(C(=O)Nc2ccc3c4c(cccc24)CC3)cccc1[N+](=O)[O-],-25,-2.9,13%,17,63,
CC(=O)c1ccc(N2CCN(C(=O)C3CCN(S(=O)(=O)c4ccc5c(c4)CC(C)N5C(=O)C4CC4)CC3)CC2)cc1 (stereo not drawn),.,0.3,.,.,2,
O=C(O)CCNS(=O)(=O)c1ccc(Oc2ccccc2Cl)cc1,-29,-3.5,-8%,19,2,
COC(=O)C1OC2(OC1C(=O)OC)c1ccccc1-c1ccccc12 (stereo not drawn),-36,-0.6,0%,-1,52,
Cc1cc(=O)n(CCO)c(O)c1C#N,-35,-1.6,-6%,10,-4,
COc1cc2cc(CN(CCO)C(=O)c3cccs3)c(=O)[nH]c2cc1OC,4,-2.5,-6%,2,.,

# Of the compounds above, two have a COOH group.
SMILES,YopH PTP inh,RecA splice inh,Mtb H37Rv,Arbovirus anti,Mtb bLac sens,others
O=C(CN1CCC(C(=O)c2cccc(Cl)c2)CC1)Nc1ccc(C(=O)O)cc1,.,7.7,-10%,-8,-6,
O=C(O)CCNS(=O)(=O)c1ccc(Oc2ccccc2Cl)cc1,-29,-3.5,-8%,19,2,

# (next part)
SMILES,YopH PTP inh,RecA splice inh,Mtb H37Rv,Arbovirus anti,Mtb bLac sens,others
Nc1nonc1C(=O)NCCNC(=O)c1cccc(Cl)c1,.,1.0,.,.,3,
COc1ccc(/C=C2\C(=O)NC(=S)N(C)C2=O)cc1C,.,3.2,-8%,-1,0,
Cc1c(C)n(C)c2ccc(C(=O)N3CCN(c4ccccc4)CC3)cc12,.,4.7,.,.,89,
CCn1ncc(CNC(=O)C2(C)CC2(Cl)Cl)c1C (stereo not drawn),-24,-0.7,9%,-1,1,
COC(=O)c1ccc(NC(=O)Cn2nnc(-c3cccs3)n2)cc1,.,0.1,-4%,6,0,
Cc1cc2nc3c(=O)[nH]c(=S)[nH]c3nc2cc1NC(=O)C(F)(F)F,.,-73,.,.,-2,
O=C(O)c1cccc(NC(=O)c2ccc(N3C(=O)c4ccc(C(=O)Nc5cccc(C(=O)O)c5)cc4C3=O)cc2)c1,.,-0.7,.,.,-2,
COc1ccc2c(CCN)c[nH]c2c1,-13,-4.9,-1%,-11,2,
O=C1CN=C(Nc2ccc(Cl)cc2)N1c1ccccc1,-3,-3.3,-4%,-6,-22,
Cc1c(-n2c(=O)n(Cc3ccccc3)c(=O)c3[nH]cnc32)cccc1S(C)=O (stereo not drawn),.,0.2,.,.,-3,
Cc1ccccc1NS(=O)(=O)c1ccc(C(=O)N2CCCC(C(F)(F)F)C2)cc1 (stereo not drawn),.,-3.2,.,.,-5,
CC(C)(O)[C@H](O)COc1c2ccoc2cc2oc(=O)ccc12,-31,-2.1,-2%,9,13,
O=C(c1ccc(S(=O)(=O)N2CCCCC2)cc1)c1nnc(-c2ccc(Cl)cc2)o1,-39,-1.3,3%,25,.,
CCOC(=O)N1CCN(C(=O)CSCc2ccc(Cl)cc2)CC1,-19,3.5,-14%,7,2,
CC(C)OC(=O)CN1CCN(c2ccc(Cl)cc2)CC1,.,-2.2,0%,11,-4,
c1ccc(-c2cc(-c3ccccc3)n3ncnc3n2)cc1,.,0.7,33%,3,28,
CC(C)=Cc1c(O)nc2ccccn2c1=O,.,.,-3%,-1,2,
CC(Oc1ccc(Cl)cc1Cl)C(=O)NNC(=O)C(=O)N1CCCC1 (stereo not drawn),.,1.2,.,.,17,
O=C(O)c1csc(-c2ccc(Cl)cc2)n1,.,-0.2,0%,2,21,
S=C(Nc1ccccc1Cl)NC1CC2CCCC(C1)N2C1CC1 (stereo not drawn),.,-0.3,-3%,10,-1,
OCCCCNCc1ccc(OCc2ccccc2)cc1,-30,-4.9,-1%,-19,1,

# An excerpt. The share of hits here may be higher or lower than overall.
